Env fusion inh – HIV envelope-mediated fusion inhibition; HeLa-JRFL Env/CEM21 cell fusion, luciferase; inhibition, % at 12.3 µM; actives 1.1% (n = 360,000); AID 651610;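 active means mean replicate inhibition score of at least 50 and every replicate individually at or above 50; inconclusive means only one of the two criteria met; inactive means mean below 50 and not all replicates reaching 50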;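 further: 0% = plate neutral controls and 100% = maraviroc near 300 nM; one replicate is shown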
Yeast UUG start – modulators of start codon recognition fidelity in yeast; actives 0.13% (n = 350,000); activity score, % at 18.7 µM; S. cerevisiae UUG-firefly luciferase reporter, luminescence/redox ratio;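 active means replicate mean at a twofold rise or more, about +100% in these data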;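 further: firefly luciferase made from a UUG start codon reports start codon fidelity; reporter light over untreated wells divided by growth signal over untreated wells; some hits fall short of that in this replicate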
Numbers without * were called inactive; ? = inconclusive; [ ] = another dose, or the depositor's remark.

SMILES	Env fusion inh	Yeast UUG start
C[C@@H]1CN([C@@H](C)CO)C(=O)c2cc(Br)cnc2O[C@@H]1CN(C)C(=O)c1ccccc1	0[16.7 µM]	1
C[C@H](CO)N1C[C@H](C)[C@H](CN(C)C(=O)CCN2CCCCC2)Oc2ncc(C#CCN(C)C)cc2C1=O	10[16.7 µM]	-3
CCCN(C)C[C@@H]1Oc2ncc(C#Cc3ccc(OC)cc3)cc2C(=O)N([C@H](C)CO)C[C@@H]1C	31[16.7 µM]	17
CCCNC(=O)N(C)C[C@@H]1Oc2ncc(C#CCc3ccccc3)cc2C(=O)N([C@H](C)CO)C[C@@H]1C	22[16.7 µM]	15
C[C@H]1CCCCO[C@@H](CN(C)Cc2ccc(C(F)(F)F)cc2)[C@@H](C)CN([C@@H](C)CO)C(=O)c2cc(NC(=O)c3ccncc3)ccc2O1	36[16.7 µM]	31
Cc1noc(C)c1S(=O)(=O)Nc1ccc2c(c1)C(=O)N([C@H](C)CO)C[C@H](C)[C@H](CN(C)C(=O)Nc1cccc3ccccc13)OCCCC[C@@H](C)O2	-5[16.7 µM]	-8
C[C@@H]1CCCCO[C@H](CN(C)Cc2ccc(C(=O)O)cc2)[C@H](C)CN([C@@H](C)CO)C(=O)c2cc(NS(=O)(=O)c3ccc(F)cc3)ccc2O1	-11[16.7 µM]	3
C[C@H](CO)N1C[C@H](C)[C@H](CN(C)Cc2ccncc2)Oc2ccc(NC(=O)NC3CCCCC3)cc2CC1=O	-40[16.7 µM]	-8
Cc1ccccc1S(=O)(=O)N(C)C[C@@H]1OCc2cn(nn2)CCCC(=O)N([C@H](C)CO)C[C@@H]1C	13[16.7 µM]	5
Cc1noc(C)c1NC(=O)N(C)C[C@H]1Oc2ccc(NC(=O)CCCCCC(=O)Nc3ccccc3N)cc2CC(=O)N([C@@H](C)CO)C[C@H]1C	-3[16.7 µM]	6
CCCc1cn(CC[C@H]2CC[C@H](NC(=O)C3CC3)[C@H](CO)O2)nn1	7[16.7 µM]	-18
C[C@@H]1CN([C@H](C)CO)C(=O)c2cccc(NC(=O)CCCCCC(=O)Nc3ccccc3N)c2O[C@H]1CN(C)Cc1ccc(-c2ccccc2)cc1	-47[16.7 µM]	-14
C[C@@H]1CN([C@H](C)CO)C(=O)c2cc(Br)cnc2O[C@@H]1CN(C)Cc1ccncc1	-13[16.7 µM]	-22
Cc1ccc(-c2cnc3c(c2)C(=O)N([C@@H](C)CO)C[C@H](C)[C@H](CN(C)C(=O)c2cccnc2)O3)cc1	-2[16.7 µM]	-16
C[C@@H]1CN([C@H](C)CO)C(=O)c2cc(-c3ccncc3)cnc2O[C@H]1CN(C)S(=O)(=O)c1ccccc1	-1[16.7 µM]	18
CCC(=O)N(C)C[C@H]1Oc2ncc(Br)cc2C(=O)N([C@@H](C)CO)C[C@H]1C	-3[16.7 µM]	-10
O=C(C[C@H]1C=C[C@@H](NC(=O)NC2CCCCC2)[C@@H](CO)O1)NCc1ccc(Cl)cc1	7[16.7 µM]	-19
C[C@@H]1CN([C@H](C)CO)C(=O)c2cc(N(C)C)ccc2O[C@@H]1CN(C)C(=O)Nc1cccc2ccccc12	16[16.7 µM]	8
O=C(C[C@@H]1C[C@@H]2c3cc(NC(=O)C4CCOCC4)ccc3O[C@@H]2[C@@H](CO)O1)NCC1CC1	-27[16.7 µM]	-3
C[C@H]1CN([C@@H](C)CO)C(=O)c2cc(NC(=O)CCCN(C)C)ccc2O[C@H]1CN(C)Cc1ccc(C(F)(F)F)cc1	-4[16.7 µM]	2

Ordered by SMILES length (low to high): 3 of the compounds above.
SMILES	Env fusion inh	Yeast UUG start
O=C(C[C@H]1C=C[C@@H](NC(=O)NC2CCCCC2)[C@@H](CO)O1)NCc1ccc(Cl)cc1	7[16.7 µM]	-19
O=C(C[C@@H]1C[C@@H]2c3cc(NC(=O)C4CCOCC4)ccc3O[C@@H]2[C@@H](CO)O1)NCC1CC1	-27[16.7 µM]	-3
Cc1ccc(-c2cnc3c(c2)C(=O)N([C@@H](C)CO)C[C@H](C)[C@H](CN(C)C(=O)c2cccnc2)O3)cc1	-2[16.7 µM]	-16

The results go on:
SMILES	Env fusion inh	Yeast UUG start
O=C(CC1CC1)Nc1ccc2c(c1)[C@H]1C[C@@H](CC(=O)N3CCCCC3)O[C@@H](CO)[C@H]1O2	7[16.7 µM]	-3
C[C@H]1CCCCO[C@H](CN(C)Cc2ccc(C(F)(F)F)cc2)[C@@H](C)CN([C@@H](C)CO)C(=O)c2cc(NC(=O)C3CCCCC3)ccc2O1	?	14
Cc1noc(C)c1NC(=O)N(C)C[C@@H]1OCCCC[C@H](C)Oc2ccc(NC(=O)Nc3ccc4c(c3)OCO4)cc2C(=O)N([C@@H](C)CO)C[C@H]1C	-16[16.7 µM]	-4
C[C@@H]1CN([C@H](C)CO)C(=O)Cc2cc(NC(=O)Nc3ccc(C(F)(F)F)cc3)ccc2O[C@H]1CN(C)C(=O)Nc1ccc(F)cc1	-2[16.7 µM]	-9
C[C@@H]1CCCCO[C@H](CN(C)C(=O)Nc2ccc(C(F)(F)F)cc2)[C@@H](C)CN([C@H](C)CO)C(=O)c2cc(NC(=O)Nc3cccc4ccccc34)ccc2O1	-21[16.7 µM]	-10
C[C@H](NC(=O)C[C@@H]1C=C[C@H](NC(=O)c2cccnc2)[C@@H](CO)O1)c1ccccc1	-24[16.7 µM]	-12
C[C@@H]1CN([C@H](C)CO)C(=O)Cc2cc(NC(=O)Cn3cnnn3)ccc2O[C@@H]1CN(C)C(=O)NC1CCCCC1	10[16.7 µM]	-4
CCCNC(=O)Nc1ccc2c(c1)C(=O)N(C)C[C@@H](OC)[C@H](C)CN(C)[C@@H](C)CO2	3[16.7 µM]	-12
CC(C)NC(=O)Nc1ccc2c(c1)C(=O)N([C@@H](C)CO)C[C@H](C)[C@H](CN(C)C(=O)C1CCCCC1)OCCCC[C@@H](C)O2	-14[16.7 µM]	22
COc1cccc(-c2cnc3c(c2)C(=O)N([C@H](C)CO)C[C@H](C)[C@H](CN(C)CC2CCOCC2)O3)c1	-27[16.7 µM]	-1

Single records, from the list above:
`CCCNC(=O)Nc1ccc2c(c1)C(=O)N(C)C[C@@H](OC)[C@H](C)CN(C)[C@@H](C)CO2` is listed with Env fusion inh = 3[16.7 µM]; Yeast UUG start = -12
`C[C@@H]1CCCCO[C@H](CN(C)C(=O)Nc2ccc(C(F)(F)F)cc2)[C@@H](C)CN([C@H](C)CO)C(=O)c2cc(NC(=O)Nc3cccc4ccccc34)ccc2O1` is listed with Env fusion inh = -21[16.7 µM]; Yeast UUG start = -10

The list continues:
SMILES	Env fusion inh	Yeast UUG start
COc1ccc(NC(=O)Nc2ccc3c(c2)C(=O)N([C@@H](C)CO)C[C@@H](C)[C@H](CN(C)S(=O)(=O)c2ccc(C)cc2)O3)cc1	-22[16.7 µM]	4
CC(C)C#Cc1cnc2c(c1)C(=O)N([C@H](C)CO)C[C@H](C)[C@@H](CN(C)C(=O)CN1CCOCC1)O2	-8[16.7 µM]	3
C[C@@H]1CN([C@@H](C)CO)C(=O)c2cccc(NC(=O)c3nc4ccccc4s3)c2O[C@@H]1CN(C)C(=O)Nc1ccccc1	-33[16.7 µM]	-2
C[C@@H]1CN([C@@H](C)CO)C(=O)c2cc(NC(=O)Nc3ccc4c(c3)OCO4)ccc2O[C@H]1CN(C)S(=O)(=O)c1cccs1	20[16.7 µM]	-11
C[C@@H]1CCCCO[C@H](CN(C)C(=O)CCC(F)(F)F)[C@H](C)CN([C@@H](C)CO)C(=O)c2cc(NC(=O)CCCCCC(=O)Nc3ccccc3N)ccc2O1	9[16.7 µM]	-5
O=C(N[C@@H]1C=C[C@@H](CC(=O)N2CCN(c3ccccc3)CC2)O[C@H]1CO)c1ccccc1	-5[16.7 µM]	-5
COc1ccccc1-c1cnc2c(c1)C(=O)N([C@@H](C)CO)C[C@H](C)[C@H](CN(C)Cc1ccc(F)cc1)O2	3[16.7 µM]	0
C[C@H]1CN([C@@H](C)CO)C(=O)c2cc(NC(=O)Nc3ccc(C(F)(F)F)cc3)ccc2O[C@H]1CN(C)S(=O)(=O)c1ccc(Cl)cc1	26[16.7 µM]	-12
Cc1cc(C(=O)Nc2cccc3c2O[C@H](CN(C)S(=O)(=O)c2ccccc2)[C@H](C)CN([C@H](C)CO)C3=O)n(C)n1	-5[16.7 µM]	24
N#C[C@H]1[C@@H](c2ccc(-c3ccncc3)cc2)[C@@H](CO)N1C(=O)C1CCCCC1	5[16.7 µM]	-10
C[C@H]1CN([C@@H](C)CO)C(=O)c2cc(C3=CCCCC3)cnc2O[C@@H]1CN(C)C(=O)CN1CCOCC1	4[16.7 µM]	-11
C=CCN1C(=O)[C@]2(O[C@H](CCO)[C@@H]([Si](C)(C)c3ccc(OC)cc3)[C@@H]2C)c2ccccc21	40[16.7 µM]	-6
Cc1noc(C)c1NC(=O)N(C)C[C@@H]1Oc2ccc(NC(=O)Cc3ccccc3)cc2CC(=O)N([C@@H](C)CO)C[C@@H]1C	18[16.7 µM]	19
COc1ccc(-c2cnc3c(c2)C(=O)N([C@H](C)CO)C[C@@H](C)[C@H](CN(C)C(=O)C2CC2)O3)cc1	6[16.7 µM]	36
CCCN(C)C[C@@H]1OCCCC[C@@H](C)Oc2ccc(N(C)C)cc2C(=O)N([C@@H](C)CO)C[C@@H]1C	0[16.7 µM]	45
Cc1ccc(S(=O)(=O)Nc2ccc3c(c2)C(=O)N([C@H](C)CO)C[C@@H](C)[C@H](CN(C)C(=O)Nc2ccc4c(c2)OCO4)OCCCC[C@@H](C)O3)cc1	-43[16.7 µM]	19
C[C@H]1CN([C@@H](C)CO)C(=O)c2cccc(NS(=O)(=O)c3ccc(F)cc3)c2O[C@@H]1CN(C)C(=O)NC1CCCCC1	6[16.7 µM]	12
C[C@@H]1CN([C@H](C)CO)C(=O)c2cc(C#C[C@@H](C)O)cnc2O[C@@H]1CN(C)C(=O)c1ccncc1	-15[16.7 µM]	-10
CCCN(C)C[C@H]1Oc2cc(-c3ccncc3)ccc2S(=O)(=O)N([C@@H](C)CO)C[C@H]1C	5[16.7 µM]	-16
CC(C)CC#Cc1cnc2c(c1)C(=O)N([C@H](C)CO)C[C@H](C)[C@@H](CN(C)C(=O)CCN1CCCCC1)O2	25[16.7 µM]	6
C[C@H]1CN([C@@H](C)CO)C(=O)c2cc(-c3cncnc3)cnc2O[C@H]1CN(C)Cc1ccncc1	-11[16.7 µM]	-5
O=C(C[C@@H]1C[C@@H]2c3cc(NC(=O)c4cccnc4)ccc3O[C@@H]2[C@@H](CO)O1)NCC1CC1	1[16.7 µM]	6
C[C@H](CO)N1C[C@H](C)[C@@H](CN(C)Cc2ccccc2F)Oc2cc(C3=CCCC3)ccc2S1(=O)=O	26[16.7 µM]	33
C[C@@H]1CN([C@H](C)CO)S(=O)(=O)c2ccc(C#CC(C)(C)O)cc2O[C@@H]1CN(C)Cc1ccc(-c2ccccc2)cc1	38[16.7 µM]	-17
C[C@@H]1CN([C@@H](C)CO)C(=O)Cc2cc(NC(=O)CCC(F)(F)F)ccc2O[C@H]1CN(C)Cc1ccccc1	1[16.7 µM]	-1
Cc1noc(C)c1S(=O)(=O)Nc1ccc2c(c1)C(=O)N([C@H](C)CO)C[C@H](C)[C@@H](CN(C)C(=O)c1ccccc1)OCCCC[C@H](C)O2	-72[16.7 µM]	2
O=C(Cc1ccncc1)N[C@H]1CC[C@@H](CCn2cc(-c3ccccc3F)nn2)O[C@@H]1CO	72*[16.7 µM]	4
C/C=C/c1cnc2c(c1)C(=O)N([C@@H](C)CO)C[C@@H](C)[C@@H](CN(C)C(=O)c1cnccn1)O2	5[16.7 µM]	-6
CCCC(=O)Nc1ccc2c(c1)C(=O)N(C)C[C@H](OC)[C@@H](C)CN(C)[C@H](C)CO2	8[16.7 µM]	0
C[C@H]1CN([C@@H](C)CO)C(=O)c2cccc(NC(=O)NC3CCCCC3)c2O[C@@H]1CN(C)C(=O)Nc1ccc(C(F)(F)F)cc1	15[16.7 µM]	-2
C[C@H](CO)N1C[C@H](C)[C@@H](CN(C)Cc2cncnc2)Oc2cc(-c3cncnc3)ccc2S1(=O)=O	23[16.7 µM]	-18
C[C@@H]1CN([C@H](C)CO)S(=O)(=O)c2ccc(-c3cncnc3)cc2O[C@@H]1CN(C)C(=O)c1cccc(F)c1	-12[16.7 µM]	18
C[C@@H]1CN([C@H](C)CO)C(=O)c2cc(-c3cccc(C#N)c3)cnc2O[C@H]1CN(C)C	3[16.7 µM]	-6
CC(C)NC(=O)Nc1ccc2c(c1)C(=O)N([C@H](C)CO)C[C@@H](C)[C@H](CN(C)Cc1ccc(Cl)c(Cl)c1)OCCCC[C@H](C)O2	7[16.7 µM]	35
Cc1ccccc1S(=O)(=O)N[C@@H]1CC[C@@H](CCn2cc(-c3ccc(F)cc3)nn2)O[C@@H]1CO	16[16.7 µM]	5
COc1cccc(C#Cc2cnc3c(c2)C(=O)N([C@H](C)CO)C[C@@H](C)[C@@H](CN(C)C(=O)C2CCOCC2)O3)c1	-3[16.7 µM]	12
CN(C)CC(=O)N[C@@H]1CC[C@H](CCNS(=O)(=O)c2ccccc2)O[C@@H]1CO	-10[16.7 µM]	-3
C[C@@H]1CN([C@@H](C)CO)C(=O)c2cccc(NS(=O)(=O)c3ccc(Cl)cc3)c2O[C@H]1CN(C)S(=O)(=O)c1ccc(Cl)cc1	27[16.7 µM]	0
COc1ccc(NC(=O)Nc2ccc3c(c2)C(=O)N([C@@H](C)CO)C[C@H](C)[C@H](CN(C)C(=O)CCCN(C)C)OCCCC[C@H](C)O3)cc1	47[16.7 µM]	16

Source: PubChem BioAssay (Broad Institute)

Not all compounds are listed; count on the stated rates, not on these rows.
